Menin-MLL FL inh – inhibitors of human menin-MLL interaction, wild-type MLL peptide. 290,000 tested, under 10 active. Fluorescence polarization, fluorescein-MLL peptide displacement from menin. AID 1766. FP activity change, % at 61.4 µM; inconclusive = falling polarisation curve, or a change in total fluorescence; inactive = total fluorescence flat and polarisation flat or rising; no compound was filed as active; the % refers to the polarisation; negative = inhibition;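 also: % of control where 0% means no effect; inhibitors lower the polarisation; unlabelled MLL peptide was the positive control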
ClpP mod – qHTS Assay for Activators of ClpP. 340,000 compounds, 1.9% hits. ATP-dependent Clp protease proteolytic subunit (Bacillus subtilis (strain 168)), P80244. Potency, µM (top dose mostly 57.5 µM), inactives show top-dose activity change, negative = active. purified B. subtilis ClpP, FRET peptide cleavage, 20 min. AID 651965, 2013; active = well fitted falling curve with a large enough effect; inconclusive = small, poorly fitted or top-dose-only effect; inactive = no such curve, though single readings can be large or run the other way; also: potency is read from the fitted curve at half-maximal effect; the source files actives as falling curves though it sought activators and does not explain the sign; nearly all actives have a fitted effect of over 65% in size; many hits overshoot -100%
Target sequence (P80244 whole entry, looked up): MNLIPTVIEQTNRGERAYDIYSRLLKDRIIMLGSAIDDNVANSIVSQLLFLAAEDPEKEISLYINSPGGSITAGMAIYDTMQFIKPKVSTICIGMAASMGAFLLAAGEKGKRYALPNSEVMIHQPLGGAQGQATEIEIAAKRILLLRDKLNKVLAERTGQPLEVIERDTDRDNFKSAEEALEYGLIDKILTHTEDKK
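Buffer: 100 mM Tris/HCl pH8, 100 mM KCl, 0.05% low protease BSA, 2.5% glycerol, 0.01% Tween-20. ClpP 10 microg/mL final; 20 min RT; delta FRET normalized to ADEP and DMSO controls.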
D2 agonist – activates the human D2 dopamine receptor. AID 624465. activation, % (no concentration beside the values). 360,000 compounds, 0.084% hits. DiscoveRx PathHunter D2 beta-arrestin, luminescence, 90 min; 100% = 57 uM dopamine signal; in the data active = activation above about 40%; inconclusive = about 15% to 40%; inactive = below about 15%; also: compound concentration not given in the record; the text of the record calls up to 30% inactive
Target sequence (P14416 whole entry, looked up): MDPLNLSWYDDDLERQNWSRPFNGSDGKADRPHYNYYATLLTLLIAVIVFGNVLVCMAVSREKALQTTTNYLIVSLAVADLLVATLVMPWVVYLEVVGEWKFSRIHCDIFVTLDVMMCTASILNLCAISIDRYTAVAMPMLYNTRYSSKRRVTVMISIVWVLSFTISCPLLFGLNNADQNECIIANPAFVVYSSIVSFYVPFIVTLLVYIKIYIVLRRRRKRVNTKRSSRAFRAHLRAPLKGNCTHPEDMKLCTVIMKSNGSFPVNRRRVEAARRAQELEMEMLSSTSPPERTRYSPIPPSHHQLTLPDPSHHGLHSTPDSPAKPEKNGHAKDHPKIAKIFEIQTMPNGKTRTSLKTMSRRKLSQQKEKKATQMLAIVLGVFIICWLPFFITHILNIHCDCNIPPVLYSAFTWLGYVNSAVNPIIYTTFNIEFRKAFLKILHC
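DiscoveRx PathHunter D2 beta-arrestin cells (2,100/well) attached overnight, then compound-stimulated 90 min at 37 C in HBSS/10 mM HEPES/0.1% Tween-20 buffer; beta-galactosidase complementation read by luminescence after 1 h at ambient temperature. Dopamine 57 uM final (EC100) as control.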
gsp agonist – activates gsp, the McCune-Albright syndrome mutation | gsp mutant cells, cAMP HTRF, 30 min; control for the full effect not named in the record | 340,000 compounds, 0.13% hits | AID 624287 | Potency, µM (doses to about 76.9 µM), without a hit: at the top dose activation (cAMP increase), hits mostly activators; active = well fitted activation curve with a large enough effect; inconclusive = small, poorly fitted or top-dose-only effect, or another doubt; inactive = no such curve, though single readings can be large or run the other way; cell line not stated here;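 also: phosphodiesterase inhibitor Ro 20-1724 added with compounds to block cAMP breakdown; potency is read from the fitted curve at half-maximal effect; nearly all actives have a fitted effect of over 60% in size; about a fifth of the inactives were tested at one dose only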
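Cells stably selected in G418 were plated at 2000/well, grown 16-24 hr, then given compounds in DMSO with the PDE inhibitor […] (300 uM solution added) for 30 min at 37C; cAMP was read by HTRF.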
Sfp PPTase inh – inhibitors of Bacillus subtilis Sfp phosphopantetheinyl transferase; Q9F4F7; Biochemical Sfp PPTase activity, qHTS; Potency, µM, for the others: max response, negative = inhibition, actives largely listed as inhibitors; 310,000 compounds, 3.5% hits; AID 1490; active = well fitted inhibition curve with a large enough effect; inconclusive = small, poorly fitted or top-dose-only effect, or another doubt; inactive = no such curve, though single readings can be large or run the other way;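 also: the enzyme is Sfp with the accession as filed and its product quenches rhodamine fluorescence; potency is read from the fitted curve at half-maximal effect; 0% = enzyme reaction without inhibitor and -100% = no enzyme wells; top concentration of the series not given in the record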
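With Hepes-Na pH 7.6 buffer containing 10 mM MgCl2, Sfp (15 nM) modified BHQ-2-YbbR (12.5 uM) using rhodamine-CoA (5 uM). Two reads 30 minutes apart at 525/598 nm yielded each well's rate.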
PINK1 modulator – modulators of PINK1 expression; PINK1 immunofluorescence, high-content cytometry, 24 h; Potency, µM (titrated, usually from 76.6 µM), inactives show top-dose activation (PINK1 increase), usual class: activators; 410,000 compounds, 0.2% hits; active = well fitted activation curve with a large enough effect; inconclusive = small, poorly fitted or top-dose-only effect; inactive = flat fitted curve, though single readings scatter; cell line not stated here;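 also: potency is read from the fitted curve at half-maximal effect; % of control where 0% means no effect; nearly all actives have a fitted effect of over 65% in size; a mitochondrial uncoupler was the plate control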
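PINK1 protein level read as immunofluorescence by microplate cytometer in a fixed, stained stable cell line after 24 h exposure to five compound concentrations, with CCCP as control.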
gsp antag – antagonists of gsp mutant (McCune-Albright syndrome) | gsp-mutant cells, cAMP HTRF, 30 min; control for the full effect not named in the record | Potency, µM (series often up to 76.9 µM), for the others: at the highest dose activity change, negative = inhibition, most hits filed as inhibitors | 340,000 compounds, 0.4% hits; active = falling curve of any shape with a large fitted effect; inconclusive = falling curve, mostly with a smaller effect; inactive = flat or rising curve; cell line not stated here;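 also: intracellular cAMP measured with PDE inhibitor Ro 20-1724 present during compound exposure; potency is read from the fitted curve at half-maximal effect; % is scaled to controls: 0 for no effect and ±100 for the full control effect; nearly all actives have a fitted effect of over 65% in size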
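G418-selected cells were plated in DMEM/10% FBS for 16-24 h at 37C, then treated with compounds plus the PDE inhibitor […] (300 uM solution added) for 30 min at 37C. Intracellular cAMP was measured by HTRF after 30 min lysis at room temperature.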
* marks the source's active call; other numbers are inactive results; ? = inconclusive; nt = no result given; & = joins results of further samples; [ ] = remark or other dose.

Order of values – Menin-MLL FL inh, ClpP mod, D2 agonist, gsp agonist, Sfp PPTase inh, PINK1 modulator, gsp antag
Cc1ccccc1Nc1nc(N)nc(COC(=O)CCS(=O)(=O)c2ccc(Cl)cc2)n1
 : nt, -0.8%, -2.1, -3%, nt, 1.0%, 0%
CCc1nc2c(OCc3ccc(C(F)(F)F)cc3)cccn2c1N(C)C(=O)c1ccc(C)cc1
 : nt, 1.3%, -6.6, nt, nt, ?, nt
CCCOc1ccc(OCCCCNC(C)CC)cc1 (configuration not stated)
 : -4.2, -0.5%, 2.1, 29%, ?, -2.9%, 26%
CC(c1n[nH]c(=S)n1-c1ccccc1)N1CCCCC1 (configuration not stated)
 : 0.3, nt, 1.8, -9%, 2%, 2.7%, 4%
COc1ccc(/C=C/C(=O)c2ccc(OC)cc2OC)cc1
 : -1.7&-2.2, -1.4%, -3.7, nt, -7%&-10%, -1.1%, ?
COc1ccc(C)cc1NC(=O)C1CCN(S(=O)(=O)c2ccc3c(c2)C(C)(C)C(=O)N3C)CC1
 : 3.9, -1.0%, -30, -27%, 10%, 2.3%, -14%
COc1ccc(C(=O)Nc2ccc3c(c2)Cc2ccccc2-3)cc1
 : 0.9, ?, -1.1, 16%, 6%, 1.2%, 10%
COc1cc(NC(=O)C2C3C=CC(C3)C2C(=O)O)c(OC)cc1Cl (configuration not stated)
 : 1.2, -1.7%, -0.4, -85%[inhibitor], -28%, -0.9%[38.3 µM], 1%
COc1ccc(CC(=O)N/N=C(\C)CC(=O)Nc2ccc(N(C)C)cc2)cc1OC
 : -0.5, nt, 8.0, -40%[inhibitor], -17%, -0.3%, -10%
Cc1oc(-c2ccc3c(c2)OCCO3)cc1C(=O)NC(CCC(=O)O)C(=O)O (configuration not stated)
 : -1.0, -8.1%, -1.6, -28%, 18µM*, -1.1%, 3%
COc1ccc(OC)c(NCCN2C(=O)c3ccccc3C2=O)c1
 : nt, 0.4%, 0.8, -102%[inhibitor], nt, 1.3%, nt
O=C(COC(=O)c1ccc(S(=O)(=O)N2CCOCC2)cc1)NC1CCCC1
 : -1.3, -1.2%, 0.1, -12%, 16%, -0.4%, -14%
Cc1ccc(S(=O)(=O)N2CC=C(C(=O)NC3CCCC3)CC2)cc1
 : 3.2, -0.3%, 5.2, -48%[inhibitor], 6%, -0.1%, -5%
Cc1ccc2nc(N(CCN(C)C)C(=O)c3ccc4c(c3)OCCO4)sc2c1
 : nt, -0.2%, -5.0, -9%, 3%, 2.2%, 10%
COc1cccc(C(=O)Nc2cccc(C(=O)NC3=NN(c4c(Cl)cc(Cl)cc4Cl)C(=O)C3)c2)c1
 : 2.3, -0.2%, -3.6, -2%, 4%, 7.1%, -6%
CCCc1ccc(Oc2cn[nH]c2-c2ccc(O)c(C)c2O)cc1
 : 3.7, -0.8%, -0.7, -10%, 21%, nt, -33%
CCN(CC)C(=O)c1ccc2nc([C@@H]3O[C@H](CO)[C@H](O)[C@H](O)[C@H]3O)[nH]c2c1
 : nt, 2.3%, -2.1, nt, nt, -0.1%, nt
Cc1cccc(C)c1N1CCN(c2n[nH]c(N)n2)CC1
 : 3.7, nt, 8.1, -4%[15.4 µM], 8%, 1.9%, 14%
COC(=O)CN(C#N)c1nc(NC(C)C)nc(NC(C)C)n1
 : -4.9, -1.7%, -4.9, 18%, 5%, 0.8%, -3%
O=S(=O)(Nc1ccccn1)c1ccc(Cl)cc1
 : -2.3, ?, -0.1, 8%, 2%, 3.0%, 8%
Nc1c2c(nn1-c1ccc(F)cc1)CSC2
 : -1.4, nt, -5.2, 5%[15.4 µM], 0%, 0.2%, 4%
CCn1cc(C(=O)NCC2CCCO2)c(=O)c2cc(S(=O)(=O)N3CCCCCC3)ccc21 (configuration not stated)
 : 4.8, -0.1%, -0.1, 24%, 8%, 7.3%[38.3 µM], -25%
O=C(Cn1ccc(NC(=O)OCc2ccccc2)nc1=O)NCC1CCCO1 (configuration not stated)
 : nt, -5.2%, -3.1, -35%[inhibitor], nt, 0.8%, 11%
COCC1=C(C(=O)OC(C)OC(=O)OC(C)C)N2C(=O)[C@@H](NC(=O)/C(=N\OC)c3csc(N)n3)[C@H]2SC1 (some centres not stated)
 : nt, 0.1%, -6.2, nt, nt, 3.8%, 17%
Cn1c2ccccc2n2c(=O)c(Cl)c(-c3ccccc3)c(C#N)c12
 : 2.6, 28µM*, 0.0, 3%, -6%, 4.9%, ?
O=C(Nc1ccccc1)c1cc(C2CCCCN2S(=O)(=O)c2cccs2)on1 (configuration not stated)
 : nt, -4.9%, -5.7, nt, nt, 0.2%, nt
CCCN1CCN(C(=O)c2oc3ccccc3c2NC(=O)COc2ccc(OC)cc2)CC1
 : 3.0, -1.4%, -2.3, -7%, -1%, -0.9%, ?
O=C(O)C1CCCN(S(=O)(=O)c2ccccc2[N+](=O)[O-])C1 (configuration not stated)
 : -0.3, nt, 1.2, ?, 30%, 0.7%, 3%
NC(=O)C1CCN(C(=O)CN(c2cccc(Cl)c2)S(=O)(=O)c2ccccc2)CC1
 : nt, -12%, -6.4, 12%, 12%, -0.6%, 3%
Cc1ccc(NC(=O)OCCN2CCN(Cc3ccccc3)CCC2=O)cc1
 : 1.0&2.6, 1.7%, 0.2, 23%, 13%&-2%, -0.4%, 1%
CCCSc1nsc(N)n1
 : -0.7, -3.4%, -2.2, 21%, ?, -1.8%[38.3 µM], 2%
O=C(Nc1ccc(F)cc1)C1CCCO1 (configuration not stated)
 : -1.1, nt, -8.0, -20%[15.4 µM], 11%, 0.1%, 10%
COc1cc(NC2c3ccccc3C(=O)N2Cc2ccccc2Cl)cc(OC)c1OC (configuration not stated)
 : 0.6, 1.0%, -7.0, -11%, 8%, 4.5%, 0%
CCNC(=S)N/N=C(\C)c1ccc2ccccc2c1OC(F)F
 : -0.7, 1.9%, -5.2, -20%, 0%, 3.0%, -20%
COCOCCn1cc(CN2CCS(=O)(=O)N(Cc3ccc(-c4ccc(F)cc4)cc3)C(C(C)C)C2=O)nn1 (configuration not stated)
 : nt, -0.5%, -1.3, -2%, nt, -0.6%, nt
CC(C)(C)c1ccc(S(=O)(=O)Nc2cccnc2)cc1
 : 0.0, -4.5%, 2.6, 1%, 12%, 1.4%[38.3 µM], ?
C=CCOC(=O)C(=O)/C=C/c1c(C)n(C)n(-c2ccccc2)c1=O
 : 0.2, 2.1%, 0.0, nt, 12%, -1.0%, 3%
Clc1cccc(-c2nc3c4ccccc4ccn3c2CC2CCCCC2)c1
 : nt, -20%, -1.0, nt, nt, -0.1%, nt
COc1cc(/C=C/C(=O)OCC(=O)NC(=O)C2COc3ccccc3O2)ccc1OC(F)F (configuration not stated)
 : nt, nt, 4.2, -28%, nt, 4.4%, -4%
CCOc1ccc(N2C(=O)CC(N(CCc3ccc(S(N)(=O)=O)cc3)C(C)=O)C2=O)cc1 (configuration not stated)
 : -1.3, nt, -1.2, 17%[15.4 µM], 8%, -0.1%, -9%
COc1cccc(C(=O)Nc2ccc3c(cc2=O)[C@@H](NC(C)=O)CCc2cc(OC)c(OC)c(OC)c2-3)c1
 : -4.2, -2.6%, 14, 28%, -11%, -1.6%, 4%
COC(=O)Cc1ccc(OCC(=O)NC2CCCC2)cc1
 : nt, 1.1%, -3.0, 14%, nt, 0.5%, 11%
COc1ccccc1N1CCN(/N=C/C=C/c2ccccc2[N+](=O)[O-])CC1
 : -0.7, nt, 5.0, 24%, -4%, 2.0%, -19%
CC(=O)Nc1ccc(NC(=O)C(C)OC(=O)CNS(=O)(=O)c2cccc(Cl)c2)cc1 (configuration not stated)
 : -1.0, nt, -1.5, -14%, 11%, -0.7%, 4%
Cc1cc(C)c2[nH]c(=S)cc(C)c2c1
 : -0.1, -5.9%, -2.7, ?, 17%, 4.1%, 6%
Cc1c(C(=O)OCC(=O)N(C)CC(=O)Nc2ccc(F)cc2)oc2ccccc12
 : nt, -20%, -2.0, -23%, nt, 1.5%, -7%
Cc1nc(C(F)(F)F)ccc1C(=O)N1CCC1(C)C(=O)NS(=O)(=O)c1cccc(C#N)c1 (configuration not stated)
 : nt, 0.4%, -5.9, nt, nt, 0.3%, nt
COc1cccc(N=C2SC(C(=O)Nc3ccc(F)cc3)CC(=O)N2C)c1 (configuration not stated)
 : 4.5, -2.5%, 2.0, -3%, 6%, nt, -13%
O=C(COC(=O)CSc1cc(Cl)ccc1Cl)NCc1ccc2c(c1)OCO2
 : 2.2, 0.1%, -3.8, ?, 4%, -1.6%, 6%
CC(=O)c1cc(-c2ccccc2)n(CC(=O)NC2CCCC2)c1C
 : -1.0, 0.0%, -2.9, 1%, -8%, 7.7%[38.3 µM], -7%
CN1CCN(CCP(=O)(c2ccccc2)c2ccccc2)CC1
 : 0.6, -0.3%, -1.1, 0%, 18%, -1.8%, 16%
CCN(C(=O)CN1CCN(C)CC1)c1c(N)n(Cc2ccccc2)c(=O)[nH]c1=O
 : nt, 1.3%, 0.9, ?, nt, 1.3%, 15%
COCCOC(=O)c1c(C)oc2ccc(OC(=O)c3cccs3)cc12
 : 0.9, 0.2%, -1.9, -2%, ?, 0.2%, 5%
Cc1oc(-c2cccc(Cl)c2)nc1CS(=O)(=O)CC(=O)NC1CC1
 : -1.7, -4.6%, -3.1, ?, 10%, 0.4%, -5%
O=C(NNc1ccc([N+](=O)[O-])cc1)C1CC2CCCC(C1)C2=O (configuration not stated)
 : -0.4, -1.1%, -1.7, 21%, -11%, 2.0%[38.3 µM], -1%
CC(=C/c1ccccc1)/C=N/N1CCN(Cc2ccc(C)cc2)CC1
 : 1.0, nt, -0.7, -4%, -10%, 0.4%, 6%
COc1ccccc1N1CCN(S(=O)(=O)c2cc(C(F)(F)F)cc(C(F)(F)F)c2)CC1
 : 4.8, -3.0%, -5.6, -40%[inhibitor], 12%, 3.7%, 7%
COC(=O)Nc1ccc(S(=O)(=O)N(CCO)CC(F)(F)C(F)F)cc1
 : -0.3, 0.9%, -0.4, ?, 16%, 2.6%, 12%
COc1cccc(/C=N/NC(=O)c2cc3c(OC)c(OC)ccc3[nH]2)c1OC
 : 3.1, 2.0%, 9.8, 17%, 1%, 15%, 20%

Screens from PubChem.
